GLA inh pH 4.5: inhibitors of human alpha-galactosidase A at pH 4.5; P06280; purified enzyme, 4-MU-alpha-Gal fluorescence, pH 4.5; activity change, negative = inhibition, % at 105 µM; 230,000 tested, under 10 active; AID 1467; inconclusive = small, poorly fitted or top-dose-only inhibition, or a rising curve; inactive = flat fitted curve, though single readings scatter; no compound was filed as active;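 note: 0% = full activity with enzyme and -100% = basal without enzyme; dose as in the result columns while the protocol names 77 µM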
Target sequence (P06280 whole entry, looked up): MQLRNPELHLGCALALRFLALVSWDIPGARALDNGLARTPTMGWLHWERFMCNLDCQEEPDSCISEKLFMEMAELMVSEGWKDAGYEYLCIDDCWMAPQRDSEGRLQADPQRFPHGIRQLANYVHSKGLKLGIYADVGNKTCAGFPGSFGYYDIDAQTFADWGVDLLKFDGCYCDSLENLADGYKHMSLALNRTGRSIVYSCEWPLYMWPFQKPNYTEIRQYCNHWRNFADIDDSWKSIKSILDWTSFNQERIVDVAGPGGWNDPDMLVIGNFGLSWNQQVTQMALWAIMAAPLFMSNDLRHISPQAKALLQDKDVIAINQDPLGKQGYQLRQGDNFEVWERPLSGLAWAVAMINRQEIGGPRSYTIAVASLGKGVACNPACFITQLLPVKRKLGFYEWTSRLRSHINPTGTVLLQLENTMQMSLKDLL
miR-21 reporter: miR-21 reporter, rising signal | HeLa miR-21 FLuc reporter, luciferase, 48 h | Potency, µM (doses to about 38.3 µM), for inactives: at the top dose reporter change, positive = more light | 340,000 tested, under 10 active | AID 2288; active = well fitted rising curve with a large enough effect; inconclusive = small, poorly fitted or top-dose-only effect; inactive = no such curve, though single readings can be large or run the other way;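 note: % of control where 0% means no effect; miR-21 action dims this reporter so a rising signal means less miR-21 action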
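Using DMEM plus 10% FBS, HeLa miR-21-FLuc cells are incubated with test compounds (final up to about 40uM) for 48 hours; firefly luciferase signal is then imaged following reagent-mediated lysis.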
Rango-impB inh: inhibitors of Rango-importin beta complex formation | AID 540263 | Potency, µM (highest dose often 92.2 µM), for the others: at the top dose inhibition of complex formation | 0.031% of 340,000 active | Q14974 | Rango CFP/YFP FRET sensor + importin beta, 45 min; active = rising FRET ratio curve, often small or poorly fitted; inconclusive = mostly compound fluorescence or quenching in the first reads; inactive = flat curves in all reads;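 note: potency is the fitted concentration of half-maximal effect; 0% = DMSO wells and 100% = buffer wells lacking importin beta; nearly all actives have a fitted effect of over 15% in size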
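FRET biosensor Rango (snurportin 1 IBB between N-terminal EYFP and C-terminal Cerulean), 50 nM in PBS/1 mM DTT/0.02% Tween-20/0.1% BSA, preincubated 5 min RT with compound; 0.125 microM importin beta added, 45 min RT, CFP/YFP FRET ratio read.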
Rango dissoc inh: inhibitors of RanGTP-induced Rango-importin beta complex dissociation | O95149+P62826 | Biochemical FRET Rango-importin beta, RanGTP-induced dissociation | Potency, µM (titrated, usually from 46.1 µM), inactives show at the top dose activity change, negative = inhibition | 0.071% of 340,000 active | AID 540253; active means falling FRET ratio curve, often poorly fitted, with flat reads before Ran was added; inconclusive means other falling curves, or compound fluorescence or quenching; inactive means flat or rising ratio curve;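 note: potency is the fitted concentration of half-maximal effect; % of control where 0% means no effect; nearly all actives have a fitted effect of over 45% in size; -100% = wells without RanGTP and RCC1; the record marks most hits as doubtful in a second field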
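Quantitative HTS using a FRET biosensor: 0.1 uM Rango, 0.25 uM importin beta, 0.6 uM Ran, 2 mM GTP, 0.2 uM RCC1 final, PBS with DTT, Tween-20 and BSA. Post-read taken 45 min after Ran addition.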
An asterisk follows results filed as active; ? = inconclusive; nt = not tested or not shown; & = joins results of further samples. Some of the compounds tested; count on the stated rates, not on these rows.

item | GLA inh pH 4.5 | miR-21 reporter | Rango-impB inh | Rango dissoc inh | molecule
1 | nt | nt | 8.0% | ? | CC(Oc1cccnc1[N+](=O)[O-])C(=O)Nc1ccc(Cl)cn1 (stereo unspecified)
2 | 12 | -9% | 4.4% | 0% | Cc1cc(C)n(-c2nc3c(c(=O)[nH]c(=O)n3C)n2C)n1
3 | nt | nt | 4.1% | 1% | O=C(O)C(c1ccccc1)C1(O)CC2CCC1C2 (stereo unspecified)
4 | nt | nt | -5.1% | -5% | O=c1cc(SCc2ccccc2)nc[nH]1
5 | 4 | 1% | 4.4% | -15% | CCOC(=O)C1C(=O)CC(C)(O)C(C(=O)OCC)C1c1cccc(OC)c1 (stereo unspecified)
6 | 2 | -1% | -1.8% | 13% | COc1ccccc1-n1cnnc1SCC(=O)Nc1ncc(Cl)cc1Cl
7 | -6 | 1% | -4.8% | 23% | Cc1cc(C)c(C)c(S(=O)(=O)Nc2ccccc2C(=O)NCCCN2CCOCC2)c1C
8 | nt | -1% | 0.0% | 2% | CC1CCN(C(=O)c2ccc(N3C(=O)c4ccccc4C3=O)cc2)CC1
9 | 2 | -3% | -0.7% | -10% | CCC1CCCCN1C(=O)CSc1nnc(-c2ccc(Cl)cc2)o1 (stereo unspecified)
10 | nt | nt | 2.9% | 22% | Cc1cccc(C(=O)OCC(=O)NC23CC4CC(CC(C4)C2)C3)c1O
11 | nt | 15% | -0.8% | 21% | CCOc1ncccc1C(=O)NCCc1ccc(OC)cc1
12 | -10 | -20% | nt | nt | Cc1c2c(nc3c(C(=O)NC4CCCCC4C)cnn13)CCCC2 (stereo unspecified)
13 | -3 | 5% | -4.9% | -3% | CN(CCOc1ccccc1)CC(=O)Nc1ccc(S(=O)(=O)N2CCCC2)cc1
14 | -9 | 7% | 4.5% | 4% | CC(=O)N1CCN(c2cc(N3CCCC3)c(F)cc2[N+](=O)[O-])CC1
15 | nt | nt | 0.5% | 4% | CCCOc1ccc(C(F)(F)F)cc1NC(=O)CCc1c(C)noc1C
16 | -4 | 3% | -1.4% | 3% | CCC(C)N1C(=O)CCC1C(=O)N1CCN(c2ccc(F)cc2)CC1 (stereo unspecified)
17 | 3 | -18% | 0.5% | 2% | Cc1[nH]c2ccc(-c3nnc(SCC(=O)c4ccc(F)cc4)o3)cc2c1C
18 | nt | nt | -3.7% | -1% | Cn1nc(C(=O)OCC(=O)NCc2ccc(Cl)cc2)c2ccccc2c1=O
19 | nt | nt | -0.6% | 7% | O=C(Oc1cc(Cl)ccc1Cl)C1=CC=CN2CCS(=O)(=O)N=C12
20 | nt | -1% | -2.0% | -15% | CCC[C@H](CN[C@@H](CNC)[C@H](C)O)NCCc1ccc(OC)cc1
21 | -3 | 2% | 3.2% | -9% | CC1=C(C(=O)N(C)C)C(c2ccc(Cl)c(Cl)c2)NC(=O)N1 (stereo unspecified)
22 | 3 | -9% | ? | ? | CCOc1ccc(C2=C/C(=C/c3cccnc3)C(=O)O2)cc1
23 | nt | -5% | -2.8% | 2% | O=C(COc1ccc(Cl)cc1)NCc1ccccc1
24 | nt | -7% | 0.0% | 3% | CCn1c(SCc2ccccc2F)nnc1-c1ccncc1
25 | -6 | -17% | 2.8% | -8% | COc1cccc(NC(=O)C(Cc2ccccc2)NC(=O)C2CCC(C)CC2)c1 (stereo unspecified)
26 | 4 | 1% | -0.4% | -9% | O=[N+]([O-])c1cc(Cl)ccc1Sc1cccc2cccnc12
27 | ? | -5% | -4.0% | 1% | CN(C)C(=O)COC(=O)c1cc(Cl)cc(Cl)c1N
28 | -15 | -25% | -4.5% | 17% | CC(=O)c1cc(C#N)c(SCCC(C)C)nc1C
29 | nt | nt | 2.3% | 14% | CCC(CC)CN1CCC(CN2C(=O)C(=O)NC[C@@H]2[C@@H](C)CC)CC1
30 | -7 | 0% | -0.7% | -5% | COc1ccc(NC(=O)CSc2ccc(-c3ccccn3)nn2)cc1OC

Not a retest: entries from further up.
item | GLA inh pH 4.5 | miR-21 reporter | Rango-impB inh | Rango dissoc inh | molecule
13 | -3 | 5% | -4.9% | -3% | CN(CCOc1ccccc1)CC(=O)Nc1ccc(S(=O)(=O)N2CCCC2)cc1
14 | -9 | 7% | 4.5% | 4% | CC(=O)N1CCN(c2cc(N3CCCC3)c(F)cc2[N+](=O)[O-])CC1
15 | nt | nt | 0.5% | 4% | CCCOc1ccc(C(F)(F)F)cc1NC(=O)CCc1c(C)noc1C
16 | -4 | 3% | -1.4% | 3% | CCC(C)N1C(=O)CCC1C(=O)N1CCN(c2ccc(F)cc2)CC1 (stereo unspecified)
17 | 3 | -18% | 0.5% | 2% | Cc1[nH]c2ccc(-c3nnc(SCC(=O)c4ccc(F)cc4)o3)cc2c1C
18 | nt | nt | -3.7% | -1% | Cn1nc(C(=O)OCC(=O)NCc2ccc(Cl)cc2)c2ccccc2c1=O
19 | nt | nt | -0.6% | 7% | O=C(Oc1cc(Cl)ccc1Cl)C1=CC=CN2CCS(=O)(=O)N=C12
20 | nt | -1% | -2.0% | -15% | CCC[C@H](CN[C@@H](CNC)[C@H](C)O)NCCc1ccc(OC)cc1
21 | -3 | 2% | 3.2% | -9% | CC1=C(C(=O)N(C)C)C(c2ccc(Cl)c(Cl)c2)NC(=O)N1 (stereo unspecified)
22 | 3 | -9% | ? | ? | CCOc1ccc(C2=C/C(=C/c3cccnc3)C(=O)O2)cc1
23 | nt | -5% | -2.8% | 2% | O=C(COc1ccc(Cl)cc1)NCc1ccccc1
24 | nt | -7% | 0.0% | 3% | CCn1c(SCc2ccccc2F)nnc1-c1ccncc1
25 | -6 | -17% | 2.8% | -8% | COc1cccc(NC(=O)C(Cc2ccccc2)NC(=O)C2CCC(C)CC2)c1 (stereo unspecified)
26 | 4 | 1% | -0.4% | -9% | O=[N+]([O-])c1cc(Cl)ccc1Sc1cccc2cccnc12
27 | ? | -5% | -4.0% | 1% | CN(C)C(=O)COC(=O)c1cc(Cl)cc(Cl)c1N
28 | -15 | -25% | -4.5% | 17% | CC(=O)c1cc(C#N)c(SCCC(C)C)nc1C
29 | nt | nt | 2.3% | 14% | CCC(CC)CN1CCC(CN2C(=O)C(=O)NC[C@@H]2[C@@H](C)CC)CC1
30 | -7 | 0% | -0.7% | -5% | COc1ccc(NC(=O)CSc2ccc(-c3ccccn3)nn2)cc1OC

Next results.
item | GLA inh pH 4.5 | miR-21 reporter | Rango-impB inh | Rango dissoc inh | molecule
31 | 0 | -24% | -0.8% | 7% | Clc1ccc(-c2nnc(SCc3ccon3)o2)c(Cl)c1
32 | -14 | -5% | -3.3% | -6% | COCCNC(=S)NC(=O)CC12CC3CC(CC(C3)C1)C2
33 | nt | -45% | ? | ? | Cn1c(/C=C/c2ccc(Cl)cc2)nc2ccccc2c1=O
34 | -5 | -4% | 3.7% | -8% | O=C(CSc1nc2c(c(=O)n1-c1ccc(Cl)cc1)SCC2)NCc1ccco1
35 | nt | -2% | -1.1% | 22% | Cc1ccc(CCNS(=O)(=O)c2ccc3c(c2)C(C)(C)C(=O)N3C)cc1
36 | -3 | -13% | ? | -17% | COc1cc(SC#N)ccc1N=Cc1c(C)[nH]n(-c2ccc(C)c(C)c2)c1=O
37 | nt | nt | 0.5% | -4% | CC(C)(C)S(=O)(=O)N1C[C@@H]2CC/C=C\C/C(c3ccccc3)=C\2[C@H]1CCO
38 | -26 | -1% | -0.4% | -10% | O=C1CSC(c2ccccc2)N1CC12CC3CC(CC(O)(C3)C1)C2 (stereo unspecified)
39 | -2 | -4% | -3.6% | 17% | COc1cc(OC)c2ccc(=O)oc2c1C(CC(=O)N1CCCC1)c1ccc(N(C)C)cc1 (stereo unspecified)
40 | -4 | -5% | -0.5% | 0% | COc1cc(/C=C/C(=O)OCC(=O)NCc2cccs2)ccc1OC(F)F
41 | nt | 3% | 1.1% | 6% | CCOc1ccc2ccccc2c1CNc1nnnn1C
42 | 5 | -43% | -0.3% | -4% | COc1nc(NCc2cccnc2)nc(NC2CCCCC2)n1
43 | nt | nt | 0.3% | -4% | CC(O)c1cc2c(s1)c1cnn(Cc3ccccc3F)c(=O)c1n2C (stereo unspecified)
44 | 0 | -4% | 0.1% | 6% | O=C(N/N=C/c1ccccn1)c1ccc(S(=O)(=O)N2CCCCCC2)cc1
45 | nt | nt | 0.8% | -8% | CCN(C(=O)CSc1nnc(SC)s1)c1c(N)n(Cc2ccccc2)c(=O)[nH]c1=O
46 | -6 | -13% | -0.3% | -1% | CC1CCN(C(=S)c2ccc(-c3ccc(Cl)cc3Cl)o2)CC1
47 | nt | nt | -4.9% | -10% | O=C(NCc1ccccc1)C1=C[C@H](c2ccc(C(F)(F)F)cc2)C[C@H](OCCCCO)O1
48 | nt | -13% | 0.3% | 2% | CC(=O)NS(=O)(=O)c1ccc(NC(=O)c2ccc3c(c2)OCO3)cc1
49 | -16 | 0% | 2.7% | 0% | Cc1cc(NC(=O)NCC(F)(F)F)no1
50 | nt | -15% | 4.6% | -7% | COc1ccc(N(C(C)=O)c2nc3ccccc3[nH]2)cc1
51 | 2 | -3% | -4.7% | -2% | CCOC(=O)Cc1nnc(NC(=O)C(CC)Sc2nc(C)cc(=O)[nH]2)s1 (stereo unspecified)
52 | 1 | -65% | -4.7% | 14% | O=C(NC(N1CCOCC1)C(Cl)(Cl)Cl)c1ccco1 (stereo unspecified)
53 | 10 | 12% | -1.8% | -6% | Cc1[nH]c2ccccc2c1-c1csc(NC(=O)CSCCO)n1
54 | nt | nt | -2.0% | 0% | COc1ccc(C(CNC(=O)c2ccc(-c3nc4ccccc4s3)o2)N2CCCC2)cc1 (stereo unspecified)
55 | -12 | 4% | 3.8% | 6% | O=C(COCC(=O)Nc1cccc(C(F)(F)F)c1)Nc1cccc(C(F)(F)F)c1
56 | 11 | -5% | nt | nt | Cc1cc(C(F)(F)F)n(-c2nc(C(=O)Nc3ccccc3Oc3ccccc3)cs2)n1
57 | 2 | -1% | 2.6% | 0% | Cn1c2c(c(=O)n(C)c1=O)C(NC(=O)c1cccs1)(C(F)(F)F)C(=O)N2 (stereo unspecified)
58 | -4 | 0% | 4.7% | 3% | CCN(CC)C(=O)C[n+]1cccc(/C=N/O)c1
59 | -5 | 1% | -1.0% | 1% | COc1cc(C(=O)OCC(=O)Nc2ccc(F)cc2F)cc(OC)c1OC
60 | nt | nt | -0.1% | -24% | CN1OC[C@@H]2CN(Cc3ccccc3)[C@H](c3cccc(N4CCOCC4)c3)C[C@@H]21
61 | 6 | -2% | -0.7% | 2% | COCCNC(=O)c1cc(S(=O)(=O)N(C)c2ccccc2OC)ccc1C
62 | nt | -2% | 1.8% | -18% | Cc1ccc(N(CC(=O)Nc2c(C)cccc2C)S(C)(=O)=O)cc1
63 | 8 | -1% | ? | 35% | CCc1ccc(/C=C/C(=O)c2ccc(S(=O)(=O)N(C)C)cc2)cc1
64 | -5 | -2% | 0.3% | 0% | O=C(CN1CCN(S(=O)(=O)c2ccc(Br)cc2)CC1)N/N=C/c1cccnc1
65 | -3 | -2% | 2.1% | 2% | CN(C(=O)c1ccc2c(c1)OCO2)C1(C(=O)NC2CCCC2)CCCCC1
66 | 5 | -1% | 2.9% | 4% | COc1ccccc1N(CC(=O)NC1CCCC1)C(=O)c1csnn1
67 | 2 | -3% | -1.9% | 0% | Cc1nc2nc(C)c(CCC(=O)Nc3ccc4c(c3)OCO4)c(C)n2n1
68 | nt | 4%&2% | 2.6% | 32% | COc1cccc(CNC(=O)CCn2ccc3cc(S(=O)(=O)N4CCCC4)ccc32)c1
69 | nt | nt | 0.9% | 10% | CCCC[C@@H]1CNCCN1CCc1cccc2ccccc12
70 | -3 | -19% | -2.1% | 15% | O=c1[nH]nc(-c2ccc(F)cc2)cc1Cc1cccs1
71 | -6 | 0% | -1.7% | 10% | CCC(C)(C)NC(=O)C(c1ccc(C)cc1)N(Cc1cccnc1)C(=O)c1csnn1 (stereo unspecified)
72 | nt | -1% | -0.2% | -9% | COC(=O)CCc1ccc(O)cc1

Screening results: PubChem BioAssay, National Center for Advancing Translational Sciences (NCATS)
